WNV NS2B-NS3 inh: WNV NS2B-NS3 proteinase inhibition; z-score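 (tested at a level between 10 and 100 µM)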; P06935; WNV NS2B-NS3 protease, fluorogenic substrate Ex360/Em465; active compounds read low; actives 0.18% (n = 65,000);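 active means z-score at -3 or under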;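 further: score is relative to mean and spread of the compound wells of a plate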
Target sequence (P06935 1371-1501 limits assumed): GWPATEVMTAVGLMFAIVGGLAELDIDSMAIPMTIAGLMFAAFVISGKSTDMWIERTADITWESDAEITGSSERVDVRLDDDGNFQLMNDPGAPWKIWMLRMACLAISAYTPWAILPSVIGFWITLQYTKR
Target sequence (P06935 1502-1679 limits assumed): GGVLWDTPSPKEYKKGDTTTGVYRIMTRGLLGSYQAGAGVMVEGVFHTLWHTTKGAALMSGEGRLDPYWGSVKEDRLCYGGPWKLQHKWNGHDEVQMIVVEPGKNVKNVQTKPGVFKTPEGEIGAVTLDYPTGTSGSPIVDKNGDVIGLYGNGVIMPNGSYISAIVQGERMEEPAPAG
Hsc70 ATP site: Hsc70 inhibitors, probe displacement, primary screen, biochemical, fluorescence polarization (AID 568); Hsc70 fluorescence polarization, probe displacement; higher % means a stronger effect; strong numbers were not always called active; displacement, % at 20 µM; hits with a dose series show IC50 in µM; 83,000 tested, under 10 active;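 active means displacement above 50% without optical interference and an IC50 on retest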;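 further: ATPase domain with a fluorescein-tagged ATP probe; 0% = vehicle and 100% = excess ADP; read after one hour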
MT1-MMP promoter: inhibitors of MT1-MMP promoter transcription, cell-based, luciferase reporter, luminescence (AID 618) | MT1-MMP promoter luciferase reporter cells, luminescence | calls from a first round at 10 µM; hits with a dose series show EC50 in µM | actives 0.62% (n = 87,000);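 active means over half of the reporter light lost at 10 µM or EC50 under 50 µM; inactive means the rest and hits that failed the dose series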;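 further: actives suppress MT1-MMP promoter-driven transcription so potencies describe inhibitors; HT1080 fibrosarcoma cells; overnight exposure; toxic or luciferase-blocking compounds were not removed from the actives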
* marks the source's active call; other numbers are inactive results. The list is partial; count on the stated rates, not on these rows.

Screening Cc1nn(Cc2ccc(Cl)cc2)c(C)c1NC(=O)c1noc2c1CCCCC2 returned WNV NS2B-NS3 inh 1.72, Hsc70 ATP site 13.5% and MT1-MMP promoter inactive.
`CC(=O)Nc1ccc(NC(=O)COC(=O)c2ccc(C)s2)cc1` gave Hsc70 ATP site -3.3% and MT1-MMP promoter inactive.
CCOC(=O)c1c(NC(=O)Cn2nnc3ccccc32)sc2c1CCC(C)C2 (stereo not given) was read as WNV NS2B-NS3 inh -1.32, Hsc70 ATP site -4.2% and MT1-MMP promoter inactive.
Cc1cc(C(=O)NCc2cccnc2)n(-c2ccccc2)n1 was read as WNV NS2B-NS3 inh -0.87, Hsc70 ATP site -0.3% and MT1-MMP promoter inactive.
COc1ccccc1OC(=O)C1CC(=O)N(c2ccc(Cl)cc2)C1 (stereo not given) was read as WNV NS2B-NS3 inh -1.7, Hsc70 ATP site -3.4% and MT1-MMP promoter inactive.
Screening COC(=O)c1ccc(OC)c(CSc2nnc(-c3ccc(C)cc3)o2)c1 returned WNV NS2B-NS3 inh -0.05, Hsc70 ATP site 4.1% and MT1-MMP promoter inactive.
`COc1ccc(N(C(=O)CNC(=O)c2ccco2)C(C(=O)NC2CCCCC2)c2ccco2)cc1` (stereo not given) gave WNV NS2B-NS3 inh 1.87, Hsc70 ATP site 0.6% and MT1-MMP promoter inactive.
Screening N#CC1=C(N)N2C(=C(C#N)C13CCCCC3)SC1CCCCC12O (stereo not given) returned WNV NS2B-NS3 inh 0.18, Hsc70 ATP site -0.1% and MT1-MMP promoter inactive.
Screening O=C(O)C1CSC2c3ccccc3C(=O)N12 (stereo not given) returned WNV NS2B-NS3 inh 0.55, Hsc70 ATP site -2.6% and MT1-MMP promoter inactive.
For CC1CC1C(=O)NCCc1ccc(Cl)cc1 (stereo not given) the results were Hsc70 ATP site 2.0% and MT1-MMP promoter inactive.
Screening O=C(C1CCC(=O)N1C1CCCCC1)N1CCN(c2ccc(F)cc2)CC1 (stereo not given) returned WNV NS2B-NS3 inh -0.18, Hsc70 ATP site -1.5% and MT1-MMP promoter inactive.
Screening Cc1ccc(N(CC(=O)O)S(C)(=O)=O)cc1Cl returned WNV NS2B-NS3 inh 0.48, Hsc70 ATP site -6.0% and MT1-MMP promoter inactive.
Screening N#CN(CC(N)=O)c1nc(N2CCCCC2)nc(N2CCCCC2)n1 returned WNV NS2B-NS3 inh 0.88, Hsc70 ATP site -7.4% and MT1-MMP promoter inactive.
`CCN(CC)S(=O)(=O)c1ccc2c3c(cccc13)C(=O)N2` gave WNV NS2B-NS3 inh 0.18, Hsc70 ATP site -2.0% and MT1-MMP promoter inactive.
COc1ccc(S(=O)(=O)NC(CC(=O)NCc2ccco2)C(C)C)cc1 (stereo not given) was read as WNV NS2B-NS3 inh 0.64, Hsc70 ATP site -3.0% and MT1-MMP promoter inactive.
`Cn1c(C(C#N)C(=O)Cc2cccc3ccccc23)nc2ccccc21` (stereo not given) gave WNV NS2B-NS3 inh -0.17, Hsc70 ATP site -5.7% and MT1-MMP promoter inactive.
NC(=O)C1CCN(CC(=O)c2c[nH]c3ccc(F)cc23)CC1 was read as WNV NS2B-NS3 inh -0.54, Hsc70 ATP site -3.8% and MT1-MMP promoter inactive.
Screening COC(=O)c1ccc2c(=O)n(CCC3=CCCCC3)c(SCC(=O)N3CCCC3)nc2c1 returned WNV NS2B-NS3 inh -0.22, Hsc70 ATP site -0.8% and MT1-MMP promoter inactive.
Screening O=C(Cc1ccc(Cl)cc1)Nc1ccc(N2CCN(C(=O)c3ccco3)CC2)c(Cl)c1 returned WNV NS2B-NS3 inh -0.76, Hsc70 ATP site -1.8% and MT1-MMP promoter inactive.
For COc1ccc(S(=O)(=O)NCc2ccc(C)cc2)cc1 the results were Hsc70 ATP site 1.5% and MT1-MMP promoter inactive.

Continued, starting with the last 2 of the part before.
Screening O=C(Cc1ccc(Cl)cc1)Nc1ccc(N2CCN(C(=O)c3ccco3)CC2)c(Cl)c1 returned WNV NS2B-NS3 inh -0.76, Hsc70 ATP site -1.8% and MT1-MMP promoter inactive.
For COc1ccc(S(=O)(=O)NCc2ccc(C)cc2)cc1 the results were Hsc70 ATP site 1.5% and MT1-MMP promoter inactive.
Screening O=C(Cc1coc(-c2ccc(F)cc2)n1)Nc1ccccc1 returned WNV NS2B-NS3 inh 0.95, Hsc70 ATP site 2.1% and MT1-MMP promoter inactive.
Screening CCOC(=O)c1sc(NC(=O)CSc2ccccn2)c(C#N)c1C returned WNV NS2B-NS3 inh 0.14, Hsc70 ATP site -7.1% and MT1-MMP promoter inactive.
For c1ccc(-c2nnc(SCc3nc4ccccc4[nH]3)n2Cc2ccco2)nc1 the results were WNV NS2B-NS3 inh -0.16, Hsc70 ATP site 4.8% and MT1-MMP promoter inactive.
`CCOC(=O)C1CCN(C(=O)CNS(=O)(=O)c2cccs2)CC1` gave WNV NS2B-NS3 inh 0.5, Hsc70 ATP site 4.0% and MT1-MMP promoter inactive.
O=C(CCCN1C(=O)c2ccccc2C1=O)Nc1cccnc1 was read as Hsc70 ATP site 3.4% and MT1-MMP promoter inactive.
Cc1oc(-c2ccccc2)cc1C(=O)Nc1cccc2ccccc12 was read as Hsc70 ATP site -0.8% and MT1-MMP promoter inactive.
O=C(COc1ccc(S(=O)(=O)NCc2ccccc2)cc1)NCC1CCCO1 (stereo not given) was read as WNV NS2B-NS3 inh -0.6, Hsc70 ATP site -1.3% and MT1-MMP promoter inactive.
Cc1ccc(NCc2nnc3n2CCCCC3)cc1 was read as WNV NS2B-NS3 inh 0.79, Hsc70 ATP site 7.0% and MT1-MMP promoter inactive.
Clc1cccc(N2CCN(CCNc3nc4ccccc4n4cnnc34)CC2)c1 was read as WNV NS2B-NS3 inh -0.76, Hsc70 ATP site -5.2% and MT1-MMP promoter inactive.
`O=[N+]([O-])c1cc(S(=O)(=O)C(F)(F)F)ccc1Sc1nc2ccccc2[nH]1` gave Hsc70 ATP site -0.4% and MT1-MMP promoter inactive.
Screening CCn1c(SCC(=O)Nc2cccc(OC)c2)nnc1-c1ccc(Cl)cc1 returned WNV NS2B-NS3 inh 0.19, Hsc70 ATP site -6.0% and MT1-MMP promoter inactive.
For CCN(CC)CCCN1C(=O)C(O)=C(C(C)=O)C1c1ccc(OC)cc1OC (stereo not given) the results were WNV NS2B-NS3 inh -2.21, Hsc70 ATP site -0.3% and MT1-MMP promoter inactive.
Screening COC(=O)[C@H](C)NC(=O)Nc1ccccc1C(F)(F)F returned WNV NS2B-NS3 inh 0.82, Hsc70 ATP site 6.4% and MT1-MMP promoter inactive.
`CC(C)(C)S(=O)(=O)c1ccc(S(=O)(=O)C(C)(C)C)s1` gave Hsc70 ATP site -5.3% and MT1-MMP promoter inactive.
For O=C(CN1CCOCC1)Nc1ccccc1NC(=O)C1CCN(c2ncccn2)CC1 the results were WNV NS2B-NS3 inh 0.32, Hsc70 ATP site -3.8% and MT1-MMP promoter inactive.
COc1ccccc1NC(=O)N1CCCC1C(=O)Nc1ccc(NC(C)=O)cc1 (stereo not given) was read as WNV NS2B-NS3 inh 0.61, Hsc70 ATP site 4.2% and MT1-MMP promoter inactive.
`CCOC(=O)c1c(C)c(C(=O)NCCCOC)c(C)n1C` gave WNV NS2B-NS3 inh -0.06, Hsc70 ATP site -0.3% and MT1-MMP promoter inactive.
Screening COc1ccc(N(CC(=O)Nc2ccc(F)c(Cl)c2)S(=O)(=O)c2c(C)noc2C)cc1 returned WNV NS2B-NS3 inh 0.31, Hsc70 ATP site 3.8% and MT1-MMP promoter inactive.
`Cc1noc(C)c1S(=O)(=O)N(CC(=O)NCc1ccc2c(c1)OCO2)c1ccc(C(C)C)cc1` gave WNV NS2B-NS3 inh -0.18, Hsc70 ATP site 5.1% and MT1-MMP promoter inactive.
Screening CCN=C(NCC)SC1CC(=O)N(c2cccc(OCC)c2)C1=O (stereo not given) returned WNV NS2B-NS3 inh -0.48, Hsc70 ATP site 4.4% and MT1-MMP promoter inactive.
`CC(C)NS(=O)(=O)c1ccc(OCC(=O)Nc2ccccc2F)cc1` gave WNV NS2B-NS3 inh 0.36, Hsc70 ATP site -3.0% and MT1-MMP promoter inactive.
Screening Cn1ccs/c1=N\S(=O)(=O)c1ccc(Br)cc1 returned Hsc70 ATP site 1.3% and MT1-MMP promoter inactive.
C=CCNC(=S)NNC(=O)C(CCC(C)C)CC(C)O (stereo not given) was read as Hsc70 ATP site -2.1% and MT1-MMP promoter inactive.
Screening CC1CCN(c2ncccc2C(=O)O)CC1 returned WNV NS2B-NS3 inh -0.79, Hsc70 ATP site -3.7% and MT1-MMP promoter inactive.
Cc1ccc(N2CC(C(=O)OCC(=O)C(C)(C)C)CC2=O)cc1C (stereo not given) was read as WNV NS2B-NS3 inh -1.79, Hsc70 ATP site 2.7% and MT1-MMP promoter inactive.
Screening CCCCCCN1C=CC(=C/C=C(\C#N)C(=O)OCC)C=C1 returned Hsc70 ATP site -200.4% and MT1-MMP promoter inactive.
For COc1ccc(N=C2NC(=O)S/C2=C\c2ccc(N(C)C)cc2)cc1 the results were Hsc70 ATP site 25.3% and MT1-MMP promoter inactive.
`CCOc1ccc(-c2nn[nH]n2)cc1OCC` gave Hsc70 ATP site -3.7% and MT1-MMP promoter inactive.
For COc1cc2c(cc1NC(=O)COC(=O)C1CC(=O)N(Cc3ccco3)C1)oc1ccccc12 (stereo not given) the results were WNV NS2B-NS3 inh 0.74, Hsc70 ATP site 0.9% and MT1-MMP promoter inactive.
For Cc1ccc2cc(CN(C(=O)c3ccco3)c3ccccc3C)c(=O)[nH]c2c1 the results were WNV NS2B-NS3 inh -0.23, Hsc70 ATP site 3.3% and MT1-MMP promoter inactive.
For CO[C@@H]1O[C@@H]2COC(c3ccccc3)O[C@@H]2[C@@H](OC)[C@@H]1O (stereo not given in full) the results were Hsc70 ATP site 1.1% and MT1-MMP promoter inactive.
CC(=O)Nc1ccc2c(c1)nc(CCN1CCN(C)CC1)n2C was read as WNV NS2B-NS3 inh 0.55, Hsc70 ATP site -3.2% and MT1-MMP promoter inactive.
For CCOC(=O)c1sc(NC(=S)n2cc(C)cn2)c(C(=O)OCC)c1C the results were WNV NS2B-NS3 inh 0.08, Hsc70 ATP site -2.7% and MT1-MMP promoter inactive.
`O=C1CCC(C(=O)Nc2cccc(C(F)(F)F)c2)N1` (stereo not given) gave WNV NS2B-NS3 inh -0.08, Hsc70 ATP site -9.4% and MT1-MMP promoter inactive.
Screening c1ccc(CNc2nc3ccccc3n2CCN2CCOCC2)nc1 returned WNV NS2B-NS3 inh 0.67, Hsc70 ATP site -3.6% and MT1-MMP promoter inactive.
CCOC(=O)N1CCC(c2nc3ccccc3[nH]2)CC1 was read as WNV NS2B-NS3 inh 1.3, Hsc70 ATP site -3.6% and MT1-MMP promoter inactive.
Cc1cccc(OCCCC(=O)NC(C)c2ccccc2)c1 (stereo not given) was read as Hsc70 ATP site 3.6% and MT1-MMP promoter inactive.
`NC(=O)c1nn(-c2ccccc2)nc1N` gave WNV NS2B-NS3 inh -1.05, Hsc70 ATP site -0.6% and MT1-MMP promoter inactive.
Screening N/C(Cn1nnc(-c2ccccc2)n1)=N\O returned WNV NS2B-NS3 inh 1.14, Hsc70 ATP site 2.9% and MT1-MMP promoter inactive.
`O=C(NCCSCc1ccco1)Nc1cccc(Cl)c1` gave WNV NS2B-NS3 inh -0.18, Hsc70 ATP site 7.8% and MT1-MMP promoter inactive.
C=C(C)COc1ccc(-c2[nH]ncc2-c2ccc(OC)c(OC)c2)c(O)c1 was read as WNV NS2B-NS3 inh -0.82, Hsc70 ATP site 6.7% and MT1-MMP promoter inactive.
Cc1ccc(C(=O)OCC(=O)NCc2ccc3c(c2)OCO3)s1 was read as WNV NS2B-NS3 inh 0.44, Hsc70 ATP site 3.1% and MT1-MMP promoter inactive.
COc1cccc(/C(O)=C2/C(=O)C(=O)N(c3cc(C)on3)C2c2cccs2)c1 (stereo not given) was read as WNV NS2B-NS3 inh 0.81, Hsc70 ATP site -1.0% and MT1-MMP promoter inactive.
Screening N#C/C(=C\C1CC2C=CC1C2)c1nc2ccccc2[nH]1 (stereo not given) returned Hsc70 ATP site -5.7% and MT1-MMP promoter inactive.
For O=C(CCN1C(=O)c2ccccc2C1=O)NCc1ccncc1 the results were WNV NS2B-NS3 inh 0.68, Hsc70 ATP site 4.5% and MT1-MMP promoter inactive.
Cc1ccc(C(=O)Nc2c(C)n(C)n(-c3ccccc3)c2=O)cc1S(=O)(=O)N1CCOCC1 was read as WNV NS2B-NS3 inh 1.15, Hsc70 ATP site 5.9% and MT1-MMP promoter inactive.
For COCCn1nnnc1CN1CCC(O)(c2cccc(C(F)(F)F)c2)CC1 the results were WNV NS2B-NS3 inh 1.12, Hsc70 ATP site 2.2% and MT1-MMP promoter inactive.
For O=C(Nc1ccc2nc[nH]c2c1)c1ccco1 the results were WNV NS2B-NS3 inh 2.24, Hsc70 ATP site -3.2% and MT1-MMP promoter inactive.
For CN1CCN(CCC(=O)Nc2ccc3c(c2)OCO3)CC1 the results were Hsc70 ATP site 4.6% and MT1-MMP promoter inactive.
Screening NC(=O)CC1NC(=O)c2ccccc21 (stereo not given) returned WNV NS2B-NS3 inh 0.74, Hsc70 ATP site -3.9% and MT1-MMP promoter inactive.

Part of the list above in order of formula weight, rising:
Screening NC(=O)CC1NC(=O)c2ccccc21 (stereo not given) returned WNV NS2B-NS3 inh 0.74, Hsc70 ATP site -3.9% and MT1-MMP promoter inactive.
For O=C(CCN1C(=O)c2ccccc2C1=O)NCc1ccncc1 the results were WNV NS2B-NS3 inh 0.68, Hsc70 ATP site 4.5% and MT1-MMP promoter inactive.
Cc1ccc(C(=O)OCC(=O)NCc2ccc3c(c2)OCO3)s1 was read as WNV NS2B-NS3 inh 0.44, Hsc70 ATP site 3.1% and MT1-MMP promoter inactive.

Screening results from PubChem BioAssay.
